# TRPML1 blocker: human mucolipin-1 channel inhibition; Q9GZU1; TRPML1-inducible cells, Ca2+ dye fluorescence, FDSS; stronger effect = lower value; inhibition of EC80 agonist-evoked calcium signal; activity change, negative = inhibition, % (no concentration beside the values); hit rate 0.02% among 390,000; AID 624415; in the data active means activity change below about -50%; inconclusive means about -30% to -50%; inactive means above about -30%;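 further: stimulus is agonist 54-4 at its EC80 concentration; on the % scale 0 is the no-effect control and ±100 the full control effect; compound concentration not given in the record; the text of the record puts the active cut at -80%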
# Target sequence (Q9GZU1 whole entry, looked up): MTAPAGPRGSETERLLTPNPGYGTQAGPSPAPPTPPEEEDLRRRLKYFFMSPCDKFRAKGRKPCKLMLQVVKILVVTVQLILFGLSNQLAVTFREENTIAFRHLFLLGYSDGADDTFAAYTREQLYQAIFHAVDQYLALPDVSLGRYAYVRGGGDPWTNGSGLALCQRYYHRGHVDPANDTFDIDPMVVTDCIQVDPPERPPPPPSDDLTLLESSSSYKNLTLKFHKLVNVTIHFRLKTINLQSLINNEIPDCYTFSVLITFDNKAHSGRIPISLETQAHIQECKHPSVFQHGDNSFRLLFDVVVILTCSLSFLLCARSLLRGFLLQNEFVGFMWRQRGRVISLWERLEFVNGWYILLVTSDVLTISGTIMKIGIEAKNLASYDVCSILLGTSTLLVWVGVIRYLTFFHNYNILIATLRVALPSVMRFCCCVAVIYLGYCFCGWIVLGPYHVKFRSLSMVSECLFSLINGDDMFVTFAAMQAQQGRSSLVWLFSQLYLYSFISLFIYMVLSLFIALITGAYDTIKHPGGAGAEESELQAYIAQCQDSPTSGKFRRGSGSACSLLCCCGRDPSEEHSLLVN
#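 Calcium fluorescence in TRPML1-DL cells induced overnight with Tet: a 110 s read after compound pin addition, then a 110 s antagonist read after challenge with 54-4 at 4 uM final (EC80).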
# Sfp inh: inhibitors of Bacillus subtilis Sfp phosphopantetheinyl transferase | Biochemical Sfp PPTase activity, qHTS | Potency, µM, inactives show max response, negative = inhibition, most hits filed as inhibitors | hit rate 3.5% among 310,000 | AID 1490; active means well fitted inhibition curve with a large enough effect; inconclusive means small, poorly fitted or top-dose-only effect, or another doubt; inactive means no such curve, though single readings can be large or run the other way;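 further: the enzyme is Sfp with the accession as filed and its product quenches rhodamine fluorescence; potency means the concentration at half of the fitted maximal effect; 0% = enzyme reaction without inhibitor and -100% = no enzyme wells; top concentration of the series not given in the record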
#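 Buffer: 50 mM Hepes-Na pH 7.6, 10 mM MgCl2, 0.01% Nonidet P-40, 0.01% BSA. Enzyme 15 nM, pre-exposed to compound 15 min; substrates then added and fluorescence change tracked over 30 min.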
# TRPV1 PAM: human TRPV1 potentiation; Q8NER1; TRPV1-expressing cells, Fluo-8 calcium influx, capsaicin EC20 potentiation; host cell line not named in the record; control for the full effect not named in the record; potentiation, % at 8.33 µM; hit rate 0.02% among 320,000; AID 540277; active means potentiation above 80%; inconclusive means 30% to 80%; inactive means below 30%; further: 0% is about no effect
#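 Fluo-8 calcium influx in TRPV1-expressing cells, kinetic read (ex 480/em 520 nm). Compound added and read 3 min for agonist activity, followed by capsaicin at EC20 final and 2 min further read for enhancement.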
# Menin-MLL FL inh: menin-MLL binding inhibition, fluorescein peptide; Fluorescence polarization, fluorescein-MLL peptide displacement from menin; FP activity change, % at 61.4 µM; 290,000 tested, under 10 active; AID 1766; inconclusive = falling polarisation curve, or a change in total fluorescence; inactive = total fluorescence flat and polarisation flat or rising; no compound was filed as active; the % refers to the polarisation; negative = inhibition;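 further: % of control where 0% means no effect; inhibitors lower the polarisation; unlabelled MLL peptide was the positive control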
# TRPML1 ag: agonists of human TRPML1 channel; hit rate 0.12% among 410,000; Q9GZU1; activation, % (no concentration beside the values); TRPML1-expressing cells, Ca2+ dye fluorescence, FDSS; host cell line not named in the record; reference of the full effect not given here; in the data active = activation above about 50%; inconclusive = about 30% to 50%; inactive = below about 30%; further: 0% is about no effect; the text of the record puts the active cut at 80%
#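 In this qHTS format, compounds were pin-transferred onto Ca8-dye-loaded TRPML1-DL cells induced with Tet overnight, and intracellular Ca2+ fluorescence was recorded kinetically for 110 s after a 10 s baseline. A subsequent 4uM final 54-4 (EC80) addition followed by a second 110 s read served as the antagonist phase.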
# ClpP mod: qHTS Assay for Activators of ClpP; ATP-dependent Clp protease proteolytic subunit (Bacillus subtilis (strain 168)), P80244; purified B. subtilis ClpP, FRET peptide cleavage, 20 min; Potency, µM (series often up to 57.5 µM), inactives show at the top dose activity change, negative = active; hit rate 1.9% among 340,000; active = well fitted falling curve with a large enough effect; inconclusive = small, poorly fitted or top-dose-only effect; inactive = no such curve, though single readings can be large or run the other way; further: potency means the concentration at half of the fitted maximal effect; the source files actives as falling curves though it sought activators and does not explain the sign; nearly all actives have a fitted effect of over 65% in size; many hits overshoot -100%
# Target sequence (P80244 whole entry, looked up): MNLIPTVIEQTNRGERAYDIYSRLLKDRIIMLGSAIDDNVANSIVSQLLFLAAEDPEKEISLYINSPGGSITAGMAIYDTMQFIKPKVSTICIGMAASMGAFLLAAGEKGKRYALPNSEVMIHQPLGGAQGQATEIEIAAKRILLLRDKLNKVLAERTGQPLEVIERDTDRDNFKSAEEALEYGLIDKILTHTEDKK
#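 FRET quenching reversal measured ClpP activation: 10 microg/mL B. subtilis ClpP at pH 8 with the FRET-FV decapeptide, read at 430 nm after 320 nm excitation. The 20-min minus 0-min signal was scaled between DMSO/no-enzyme wells and ADEP (5.8 microM final).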
# PINK1 expr mod: modulators of PINK1 expression; PINK1 immunofluorescence, high-content cytometry, 24 h; Potency, µM (top dose mostly 76.6 µM), inactives show at the highest dose activation (PINK1 increase), usual class: activators; hit rate 0.2% among 410,000; active = well fitted activation curve with a large enough effect; inconclusive = small, poorly fitted or top-dose-only effect; inactive = flat fitted curve, though single readings scatter; cell line not stated here;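 further: potency means the concentration at half of the fitted maximal effect; % of control where 0% means no effect; nearly all actives have a fitted effect of over 65% in size; a mitochondrial uncoupler was the plate control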
#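 A stable cell line was treated with compounds at 5 concentrations for 24 hours, with CCCP as control. PINK1 levels and mitochondrial localization were measured by immunofluorescence with mitochondrial, cell and nuclear markers after fixation, read by laser-scanning cytometry.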
# * = called active by the depositor; u = inconclusive; x = not tested or not shown; [ ] = remark or other dose.
SMILES,TRPML1 blocker,Sfp inh,TRPV1 PAM,Menin-MLL FL inh,TRPML1 ag,ClpP mod,PINK1 expr mod
O=c1c2ccccc2oc2c1ccc1ccccc12,-1,x,x,x,-0.6,4.6%,-1.3%
COc1ccc(C(=O)O/N=C(\N)c2ccncc2)cc1OC,12,17%,-2,3.2,1.0,1.5%,0.4%
C[C@@H]1CN([C@H](C)CO)C(=O)CCCn2nncc2CO[C@@H]1CN(C)C(=O)C1CCCCC1,8,x,x,x,-0.7,0.2%,0.0%
O=C1CSC2(C(=O)N(Cc3ccccc3)c3ccccc32)N1c1cccc(F)c1 (stereo not drawn),-19,x,x,x,2.2,-0.2%,0.3%
Cc1ccccc1CNC(=O)Nc1ccc(Cl)cc1,21,16%,0,-1.5,-0.3,x,5.2%
COc1ccc(CCN(C)c2ccc(S(=O)(=O)N3CCCC3)cc2[N+](=O)[O-])cc1OC,-17,15%,11,9.2,-0.1,-1.5%,0.5%
CCn1c(=O)cc(SCC(=O)N2CCOCC2)c2ccccc21,-4,-4%,12,0.7,-0.5,-25%,3.1%[38.3 µM]
COc1cccc(CNC(=O)CCC2CCCN(C(=O)CCC(F)(F)F)C2)c1 (stereo not drawn),-2,9%,5,-0.3,-0.2,x,1.2%
CC1CCN(S(=O)(=O)c2ccc3c(c2)N(CC(=O)NCCN(C)C)C(=O)CS3)CC1,-2,x,x,x,-0.9,-0.3%,-1.1%
O=S(=O)(c1cc(Cl)ccc1Cl)N1CCN(c2ccccn2)CC1,u,-5%,-15,x,0.7,x,-0.3%
O=C(CN1C2=NCCCN2c2ccccc21)c1ccc2c(c1)OCO2,-4,2%,2,0.1,0.4,-5.8%,x
CC(=O)c1ccc(-c2cnc3c(NC=O)cc(-c4cccc(NS(C)(=O)=O)c4)cn23)cc1,x,x,x,x,-1.0,-18%,-0.4%
Cc1ccc(CNC(=O)c2cccc3c2C(=O)c2ccc(N4CCOCC4)cc2S3(=O)=O)cc1,24,x,1,x,6.2,-0.7%,1.0%
COc1ccc(C(=O)CSc2nc(=O)n3ccc(C)cc3n2)cc1,-5,x,x,x,-1.0,-4.1%,-0.2%
COc1cc(C2c3c(oc4ccccc4c3=O)C(=O)N2c2nnc(C(C)C)s2)cc(OC)c1OC (stereo not drawn),17,x,x,x,0.2,0.6%,-0.1%
C=CCN1C(=O)C(CC(=O)O)SC1=Nc1cccc([N+](=O)[O-])c1 (stereo not drawn),-1,8%,4,2.8,0.0,x,4.8%
Cc1cc2nn(-c3ccccc3)nc2cc1NC(=O)Cc1ccc(Cl)cc1,-21,x,x,x,0.8,13%,0.2%
C=CC(=O)N1CCCC(Nc2nc(Nc3ccc(N(C)C(=O)CC)cc3C)nc3nc[nH]c23)C1 (stereo not drawn),-3,x,x,x,-0.5,0.3%,-0.1%
CC[C@H](C)[C@@H](N)C(=O)NC[C@H]1O[C@@H](n2cnc3c(=O)[nH]c(N)nc32)[C@H](O)[C@@H]1O,26,x,x,x,0.1,1.4%,-0.3%
CCC(C)Sc1nnc(-c2c[nH]c3ccccc23)n1CCOC (stereo not drawn),-10,0%,-3,-0.7,-0.3,-1.5%,6.2%[38.3 µM]
O=C(NCCCN1CCOCC1)c1cccc(S(=O)(=O)Nc2cc(Cl)ccc2Cl)c1,-6,25%,11,1.9,-0.3,x,1.2%
COc1ccc(NC(=O)Cn2c(=O)n(Cc3ccccc3Cl)c(=O)c3cc(OC)c(OC)cc32)cc1OC,-6,x,x,x,-0.4,3.9%,1.7%
O=C(CCn1c(=S)[nH]c2cc3c(cc2c1=O)OCO3)NCc1ccc(Cl)cc1,20,6%,-10,1.6,0.1,x,3.2%
O=C(NC1(N2CCOCC2)CC1)c1ccc(Cl)cc1,23,-13%,-18,-3.2,0.1,-0.5%,1.5%
CCOCCc1nn2c(=O)cc(COC(=O)c3ccccc3OC)nc2s1,-14,x,x,x,2.2,-0.3%,-0.8%
Cc1nc(N2CCN(c3ccccn3)CC2)c2c(C)c(C(=O)N3CCN(c4cccc(Cl)c4)CC3)sc2n1,0,-6%,u,-2.6,0.3,x,0.3%
Cc1ccc2c(c1)CCCN2CC(=O)N(C)c1c(N)n(Cc2ccccc2)c(=O)[nH]c1=O,28,x,3,x,0.7,-9.7%,3.9%
COC(=O)N/N=C/c1ccccc1Cl,-2,21%,15,1.2,0.5,-3.5%,0.8%
C[C@@H](C(=O)NCCc1ccccc1)N1C(=O)N2CCc3c([nH]c4ccccc34)[C@@]2(C)C1=O,x,0%,13,0.7,x,0.6%,u
COc1cc2c(cc1OC)CN(S(C)(=O)=O)CC2,17,15%,0,0.1,0.3,0.4%,-0.6%
CCCCN(C)c1nc2c(S(=O)(=O)c3ccc(CC)cc3)nnn2c2ccc(Cl)cc12,-16,x,x,x,-0.3,-5.0%,2.0%
CCOc1ccc(CNC(=O)C2CCN(C(=O)N3CC(CC)Oc4ccccc43)CC2)cc1 (stereo not drawn),-4,x,x,x,2.4,-2.0%,0.1%
CCN1CCN(C(=O)c2ccccc2N(C)S(=O)(=O)c2ccc(C)cc2)CC1,0,0%,-1,1.8,-0.7,-0.6%,-1.6%
COc1ccccc1CNC(=O)CSc1ccc(-c2sc(-c3ccccc3)nc2C)nn1,41,x,x,x,2.7,28µM*,1.2%
CCOc1ccc(NC(=O)Cn2c(=O)n(CCc3ccccc3)c(=O)c3c4c(sc32)CCCC4)cc1,-10,x,x,x,-0.9,2.3%,1.0%
Cc1ccc(S(=O)(=O)NC(=O)COc2ccccc2)cc1,-14,22%,2,-6.4,0.8,-3.2%,-0.3%
S=C(Nc1cccc(Cl)c1Cl)Nn1cnnc1,-11,35µM*,-1,1.0,0.6,-1.5%,-2.0%
CCN(CC)CCNC(=O)c1cc(-c2cccnc2)nc2ccc(S(=O)(=O)N3CCC(C)CC3)cc12,-6,8%,15,x,-0.2,-1.3%,2.2%
O=C1OC(Cc2ccccn2)C(O)=C1C1=NCCCCN1 (stereo not drawn),-1,-22%,-1,0.3,0.2,-1.2%,-0.5%
Cc1ccc(Cn2nnc3c(=O)n(CC(=O)NCc4ccc5c(c4)OCO5)cnc32)cc1,10,3%,12,1.2,1.7,1.9%,0.8%[38.3 µM]
CCCCC(Sc1ccc2nnc(-c3ccccn3)n2n1)C(=O)O (stereo not drawn),x,x,x,x,-0.1,-5.5%,0.5%
COc1ccc(S(=O)(=O)N2CCc3ccccc32)cc1C(=O)Nc1cc(S(C)(=O)=O)ccc1Cl,-11,x,x,x,-0.1,-0.4%,0.3%
CC1CCN(C(=O)c2ccc(S(=O)(=O)N(C)C)cc2)C(C)C1 (stereo not drawn),1,10%,-2,0.3,0.3,1.0%,1.4%[38.3 µM]
CS(=O)(=O)N(CC(=O)NC1CCCCC1)Cc1ccc(F)cc1,-14,16%,0,-4.1,-0.2,x,-0.3%
COc1cccc(NC(=O)C2CCCN(S(=O)(=O)c3c(C)nn(C)c3C)C2)c1 (stereo not drawn),-1,x,x,x,-0.4,0.0%,1.0%
Cc1cc(C)n(CC(=O)N/N=C/c2cccc([N+](=O)[O-])c2)n1,-7,-17%,0,x,0.3,-3.2%,17%
Cc1cc(C(=O)NC2CC(C)(C)Cc3c2cnn3-c2ccccc2)n(C)n1 (stereo not drawn),14,19%,1,x,-0.1,-0.7%,2.6%
O=C(CNC(=O)c1ccc(Br)cc1)N=Nc1c(O)[nH]c2ccc([N+](=O)[O-])cc12,0,23%,4,2.6,2.5,x,1.3%

# A second format for part of the listing above.
structure | TRPML1 blocker | Sfp inh | TRPV1 PAM | Menin-MLL FL inh | TRPML1 ag | ClpP mod | PINK1 expr mod
CS(=O)(=O)N(CC(=O)NC1CCCCC1)Cc1ccc(F)cc1 | -14 | 16% | 0 | -4.1 | -0.2 | x | -0.3%
COc1cccc(NC(=O)C2CCCN(S(=O)(=O)c3c(C)nn(C)c3C)C2)c1 (stereo not drawn) | -1 | x | x | x | -0.4 | 0.0% | 1.0%
Cc1cc(C)n(CC(=O)N/N=C/c2cccc([N+](=O)[O-])c2)n1 | -7 | -17% | 0 | x | 0.3 | -3.2% | 17%
Cc1cc(C(=O)NC2CC(C)(C)Cc3c2cnn3-c2ccccc2)n(C)n1 (stereo not drawn) | 14 | 19% | 1 | x | -0.1 | -0.7% | 2.6%

# New compounds follow:
SMILES,TRPML1 blocker,Sfp inh,TRPV1 PAM,Menin-MLL FL inh,TRPML1 ag,ClpP mod,PINK1 expr mod
O=C(Nc1ccc(F)cc1)c1ccc(-n2ccnc2)nc1,6,19%,-25,1.4,-0.4,0.0%,0.7%[38.3 µM]
O=C(CC1NCCNC1=O)Nc1ccc2c(c1)OCO2 (stereo not drawn),-15,19%,3,6.7,0.5,-2.7%,3.1%
COc1cc(C(=O)Nc2scc(-c3ccc(Br)cc3)c2C(=O)O)cc(OC)c1OC,3,16%,u,-0.1,1.4,-4.9%,-3.5%
CCN(C[C@H]1N[C@@](C)(C(=O)OC)[C@H]2C(=O)N(C)C(=O)[C@@H]12)C(=O)c1ccc(F)cc1,25,x,x,x,2.3,0.0%,-0.9%
FC(F)(F)c1ccccc1NC(=S)N1CCN(Cc2ccc3c(c2)OCO3)CC1,11,u,7,-1.2,1.0,5.4%,-1.0%
COc1ccc(-c2cc(-c3ccccc3)nc3c2COc2ccc(Cl)cc2-3)cc1,31,x,x,x,0.1,u,0.6%
COCC(=O)N(C)[C@H]1C[C@H]2c3cc(N4CCN(C)CC4)ccc3CCN2C(=O)[C@H]1[C@H](C)O,27,x,x,x,2.3,-1.2%,-0.6%
CC1(C(=O)NCCc2ccccc2)Cc2c(-c3cccc(C(N)=O)c3)ccnc2O1 (stereo not drawn),x,x,x,x,-0.5,-4.3%,4.9%
Cc1ccc(S(=O)(=O)NC2CCCCC2)c2nsnc12,1,3%,-8,-3.0,1.3,-0.8%,7.4%
CC(CNC(=O)CC[C@H]1O[C@@H](n2ccc(=O)[nH]c2=O)[C@H](O)[C@@H]1O)c1ccccc1 (stereo partly drawn),-15,x,x,x,-0.1,0.8%,-0.2%
CCOc1ccc(C(=O)N/N=C/c2cccc3cccnc23)cc1,-10,-8%,7,0.9,-0.5,-0.5%,0.6%
CC1CCN(S(=O)C23CC4CC(CC(C4)C2)C3)CC1 (stereo not drawn),1,13%,-16,-0.8,0.9,x,-1.8%
